VACV mCherry inh – vaccinia inhibition (mCherry reporter); Vaccinia virus mCherry reporter infection, fluorescence; about a quarter of the inactives have no number; Potency, µM (titrated, usually from 36.5 µM), for inactives: top-dose activity change, negative = inhibition, hits mostly inhibitors; hit rate 0.63% among 310,000; active = well fitted inhibition curve with a large enough effect; inconclusive = small, poorly fitted or top-dose-only effect; inactive = no such curve, though single readings can be large or run the other way; tested in A549 cells; further: nearly all actives have a fitted effect of over 35% in size; inactives centre near -10
Vaccinia Venus – vaccinia inhibition (Venus reporter); Vaccinia virus Venus reporter expression, fluorescence; Potency, µM (doses to about 36.5 µM), for inactives: at the highest dose activity change, negative = inhibition, most hits filed as inhibitors; hit rate 0.46% among 330,000; active means well fitted inhibition curve with a large enough effect; inconclusive means small, poorly fitted or top-dose-only effect; inactive means no such curve, though single readings can be large or run the other way; tested in A549 cells; further: nearly all actives have a fitted effect of over 30% in size; inactives centre near -10
* = called active by the depositor; i = inactive; ? = inconclusive; . = not tested or not shown; & = joins results of further samples; [ ] = dose if it differs, or a comment. On the % scale 0 is the no-effect control and ±100 the full control effect; potency means the concentration at half of the fitted maximal effect.

structure	VACV mCherry inh	Vaccinia Venus
CNC[C@@H](Cc1ccccc1)NC[C@@H](CC1CCCCC1)NCCCc1ccccc1	?	?
O=C(NCc1ccco1)c1cc2nc(C3CC3)cc(C(F)(F)F)n2n1	.	-25%
Cc1ccc(NC(=O)CN2CCN(CCN=CC3=C(O)CC(c4ccc(C)cc4)CC3=O)CC2)cc1 (configuration not stated)	-12%	-11%
CCc1ccc(N2C(=O)CC(c3cc(OC)ccc3OC)C3=C2COC3=O)cc1 (configuration not stated)	-3%	-3%
COc1ccc(OC)c(C2=NOC(C(=O)NCc3cccs3)C2)c1 (configuration not stated)	-20%	?
CCOC(=O)c1ccc(NC(=O)CC2C(=O)N(c3ccc(C)cc3)C(=O)N2C2CCCCC2)cc1 (configuration not stated)	-19%	-22%
CCCCN(C)CCCNC(=O)C1CCN(S(=O)(=O)CC)CC1	-15%	-12%
COc1ccccc1C(=O)n1nc(-c2cccnc2)nc1NCc1ccccc1	-7%&-17%	-21%&-7%
CC(=O)Nc1ccc(N(C(=O)CNC(=O)c2ccco2)C(C(=O)NCc2ccco2)c2ccccc2)cc1 (configuration not stated)	-10%[7.34 µM]	-3%[7.34 µM]
CC(C)NC(=O)c1sc2nc3c(c(-c4cccs4)c2c1N)CN(C)CC3	.	3%
Cc1ccc(-c2nc(-c3cc4c([nH]c3=O)CC(C)(C)CC4=O)sc2C)cc1	0%	2%
Cc1cc(C(F)(F)F)nn1CC(=O)NCc1ccccc1	-1%[1.46 µM]	-18%
CCN1C(=O)N(CC)C2C1N(C(C)=O)C(=O)N2C(C)=O (configuration not stated)	.	-1%
COc1cc(OC)cc(C(=O)Nc2nnc(-c3cccnc3)o2)c1	-4%	-1%
COc1ccccc1-c1nnc(NC(=O)c2ccc(S(=O)(=O)N3CCOCC3)cc2)o1	-30%	-19%
COc1ccccc1C(=O)Nc1sc2c(c1C(=O)NCc1ccco1)CCCC2	-18%	-12%
Cc1sc2nc(COC(=O)C(NC(=O)c3ccc(Cl)cc3Cl)C(C)C)[nH]c(=O)c2c1C (configuration not stated)	i	-13%
NNC(=O)COc1ccc(F)cc1	i	-8%
CC(C)(C)C(=O)O[C@H]1CC[C@@]2(C)C(=CC(=O)C3C2CC[C@]2(C)C(=O)[C@H](O)CC32)C1 (some centres not stated)	-23%	-16%
Cc1ccc(CSc2nnc(-c3ccncc3)o2)c(C)c1	-1%	-12%
COc1ccc(/C=C2\SC(=S)N(CCC(=O)N3CCCCC3)C2=O)cc1	-15%	-6%
NS(=O)(=O)c1ccc(N=Cc2c(O)n(C3CCCCC3)c(=O)n(C3CCCCC3)c2=O)cc1	?	?
CSCC[C@H](NC(=O)c1cccs1)C(=O)N1CCC2(CC1)NCCc1[nH]cnc12	i	-6%
CC(=O)NN1C(=O)c2ccccc2NC1c1ccccn1 (configuration not stated)	-15%	-3%
CCCCCC/C(C=O)=C\c1ccccc1	i	-4%
CCN1CC=C(c2c[nH]c3ccccc23)CC1	?	?
COc1ccc2c(CC(=O)Nc3cccc(S(=O)(=O)N4CCOCC4)c3)coc2c1	-22%	-17%
COc1ccc(NC(=O)N(C)C[C@H]2Oc3ccc(NC(=O)c4ccncc4)cc3C(=O)N([C@H](C)CO)C[C@@H]2C)cc1	i	-19%
Cc1nc2c(C(=O)NCCc3ccccc3)c[nH]n2c(=O)c1Cc1ccccc1F	4%	4%
CN1C[C@@H]2[C@@H]3C(=O)N(Cc4ccccc4)C(=O)[C@@H]3[C@](Cc3ccccc3)(C1=O)N2C(=O)c1ccc(C(F)(F)F)cc1	i	-24%
COc1cc(NC(=O)c2onc(C)c2Cl)c(OC)cc1Cl	0%	-8%
Cc1cc(C(=O)Nc2ccc3c(c2)OCCO3)c2ccccc2n1	-8%	-7%
CCN(C[C@H]1N[C@@](Cc2ccccc2)(C(=O)OC)[C@H]2C(=O)N(Cc3ccccc3)C(=O)[C@@H]12)S(=O)(=O)c1ccc(F)cc1	-19%	-22%
COCCn1c(C)cc(C(=O)CSc2nc3ccccc3c(=O)n2C(C)COC)c1C (configuration not stated)	-15%	-14%
Cc1cccc(Oc2cc([N+](=O)[O-])cc3c2C(=O)Nc2ccccc2O3)c1	-30%	-13%
N#Cc1ccc(NC(=O)Nc2ccc(Cl)cc2)cc1	?	11µM*
CCOC1=C2CN(S(=O)(=O)c3ccc(C)cc3)C(c3ccc(C)cc3)CC2N(S(=O)(=O)c2ccc(C)cc2)C(c2ccccc2)C1 (configuration not stated)	-19%	-11%
O=C(CCc1ccccc1)Nc1ccc(Cl)cn1	?	?
CC1CCCCC1NC(=O)c1nn(C)c2c1CS(=O)(=O)c1ccccc1-2 (configuration not stated)	-7%[7.34 µM]	-4%[7.34 µM]
Cn1nc([N+](=O)[O-])nc1Sc1nnnn1-c1ccc(C(=O)O)cc1	i	-12%
CCOc1c(OC(C)=O)ccc(/C=C/c2ccc3cccc(OC)c3n2)c1[N+](=O)[O-]	?	?
O=c1[nH]cnc2nc[nH]c12	-8%	10%
Cc1ccc(/C=N/N2CCN(Cc3ccc(Cl)cc3)CC2)o1	.	-20%
CCc1nnc(NC(=O)CC23CC4CC(CC(C4)C2)C3)s1	i	-25%
CCOc1ccc(NC(=O)COc2ccc(C(=O)NC(C)c3ccc(S(N)(=O)=O)cc3)cc2OC)cc1 (configuration not stated)	i	-12%
N#Cc1ccc(-c2nc3ccc(Cl)cn3c2Cc2cccc(Cl)c2)cc1	2%	-5%
Cc1cc([N+](=O)[O-])ccc1NC(=O)c1cccc(NC(=O)C(C)C)c1	-27%	-18%
Cc1ccc(NC(=O)COC(=O)C2COc3ccccc3O2)cc1S(=O)(=O)N1CCOCC1 (configuration not stated)	-15%	-4%
COc1cccc(NC(=O)CN(C)C(=O)Cn2[nH]c(=O)c3ccccc3c2=O)c1	1%	9%
Cc1ccc(N2CC(C(=O)Nc3ccc(Cl)cc3Cl)CC2=O)cc1 (configuration not stated)	-13%	-6%

(next part)
structure	VACV mCherry inh	Vaccinia Venus
CC(=O)N1CCN(c2ccc(Nc3ncnc4c3oc3ccccc34)cc2)CC1	-14%[1.46 µM]	?
Cc1cccc(NC(=O)N2CCC(C(=O)c3ccc(F)cc3)CC2)c1	-15%	-16%
CC(C)CC(=O)NC(=S)NCCc1ccccc1	-4%	-27%
CCOC(=O)c1ccc(NC(=O)C(Cc2ccccc2)NS(=O)(=O)c2ccc(Br)s2)cc1 (configuration not stated)	-10%	2%
Clc1ccc(-c2ccc(CNCCSc3nnnn3-c3ccccc3)o2)cc1	-5%	-9%
O=C(Nc1nccs1)c1cc2sccc2n1Cc1ccc(F)cc1	i	-17%
Cc1ccc(C(=O)NNC(=O)CCCCC(=O)NNC(=O)c2ccc(C)cc2)cc1	-21%	-4%
CC(=O)OC12COC1CC(O)C1(C)C(=O)C(O)C3=C(C)C(O)CC(O)(C(OC(=O)c4ccccc4)C21)C3(C)C (configuration not stated)	-2%	-19%
O=C(OCc1c(-c2ccccc2)ncc2ccccc12)c1ccc(Br)cc1	-23%	?
CCN(CC)CC(O)CNc1ccnc2c(Cl)ccc(Cl)c12 (configuration not stated)	?	-2%
CN(C)/N=C/C=C1\CCC/C(=C\c2ccc(F)c(F)c2)C1=O	4%	3%
Cn1c(=NC(=O)c2ccccc2[N+](=O)[O-])sc2cc(S(C)(=O)=O)ccc21	-16%	-12%
Cc1ccc(S(=O)(=O)Nc2cc3c(cc2Cl)n(C)c(=O)c(=O)n3C)cc1	-2%	5%
O=C(Nc1ccccc1N1CCCC1)c1cccnc1Cl	i	1%
COc1cccc(-n2c(/C=C\c3ccc(Cl)cc3)nc3ccccc3c2=O)c1	-4%	-7%
COc1ccc(CNC(=O)COC(=O)c2ccc(OCc3c(C)noc3C)cc2)cc1OC	-19%	-13%
CCN(CC)S(=O)(=O)c1ccc(N2CCOCC2)c(NC(=S)NC(=O)c2ccco2)c1	-12%	-25%
COc1ccc(Cl)cc1N(CC(=O)N(C)C)S(=O)(=O)c1ccc(C)c([N+](=O)[O-])c1	-10%	-13%
COCCNC(=S)Nc1ccccc1[N+](=O)[O-]	i	-2%
CCC(Sc1nc2cc(OC)c(OC)cc2c(=O)n1Cc1ccc(Cl)cc1)C(=O)NCCOC (configuration not stated)	-14%	-16%
COc1ccc(OC)c(S(=O)(=O)NC(=O)C2(C)CCN2C(=O)Cc2ccccc2Cl)c1 (configuration not stated)	-28%	-23%
CCCNC(=S)N1CCN(C)CC1	-12%	-5%
Cc1ccc(S(=O)(=O)NC(C(=O)N2CCOCCOCCOCC2)c2ccccc2)cc1 (configuration not stated)	1%	0%
CCCCC[C@@H](C)N1C[C@H](COCc2ccccc2)Oc2cc(N3CCC[C@H]3C(N)=O)ccc2S1(=O)=O	-5%	-13%
Cc1ccc(N2CCCCn3c2nc2c3c(=O)[nH]c(=O)n2C)cc1	.	-2%
Cc1ccc2nc3c(cc2c1)c(NC(=O)C(C)(C)C)nn3CC(C)C	-10%	?
CCOC(=O)c1c(NC(=O)OC)sc2c1CCC2	-17%	-9%
CCNS(=O)(=O)c1ccc(CCC(=O)Nc2ccc(C(=O)OC)cc2)cc1	i	-1%
Cc1ccc(/C=N/NC(=O)c2cc(-c3ccccc3)nc3ccccc23)o1	?	-21%
O=C(C1CCCN1S(=O)(=O)c1cccc2cccnc12)N1CCn2c1nc1ccccc12 (configuration not stated)	18%	-15%
COCCN(C(=O)COC(=O)/C=C/c1cccc(OC)c1)c1c(N)n(CC(C)C)c(=O)[nH]c1=O	i	-13%
CC(=O)c1cccc(NC(=O)C2CCN(S(=O)(=O)c3ccc(C)cc3)CC2)c1	.	-21%
COC(=O)c1ccc2c(=O)n(CCCCCC(=O)NCc3ccc(Cl)cc3)c(=O)[nH]c2c1	-20%	-16%
CCOC(=O)c1ccn(S(=O)(=O)c2ccc(C)cc2)c1-c1ccccc1	7%	-3%
Cc1cc2nc(-c3ccc(SCC(=O)N4CCN(C(=O)c5ccco5)CC4)nc3)[nH]c2cc1C	-2%	-8%
CCOc1ccc(CCNC(=O)COC(=O)c2cccc(S(=O)(=O)N3CCOCC3)c2)cc1OCC	i	-6%
COc1cc(OC)cc(-c2cc3nc(C)c(CCC(=O)NCc4ccccc4)c(C)n3n2)c1	?	-25%&-16%
COc1ccc(-n2nnc(-c3nsc(NC(=O)c4cccc(C)c4)n3)c2C)cc1OC	-11%	-11%
C[C@]12C=CC(=O)C=C1CCC1C2C(=O)C[C@]2(C)C1CC[C@]2(O)C(=O)CO (some centres not stated)	-11%	-3%
COc1cc(C2NC(=O)NC(O)(C(F)(F)F)C2C(C)=O)cc(OC)c1OC (configuration not stated)	-11%	-24%
CC(=O)Nc1nnc(SCc2ccc(F)cc2)s1	-12%	3%
COc1ccc(NC(=O)CSc2nnnn2C2CCCC2)c(OC)c1	i	-15%
O=C(CSc1nnc(CNC(=O)c2ccccc2)o1)NCCc1ccccc1	i	-3%
Cc1c(C2=CCN(S(=O)(=O)c3ccc(Br)cc3)CC2)c2ccccc2n1CC(=O)N1CCCC1	-7%	1%
COc1ccccc1/C=C/C(=O)N1CCc2cc(OC)c(OC)cc2C1C (configuration not stated)	3%	10%
CCc1cc(C(=O)Cc2ccc(F)cc2)c(O)cc1O	-12%	?
COC(=O)COc1cccc2c(=O)n(CC(=O)NCCc3ccc(OC)c(OC)c3)ccc12	i	-4%

Some values from the list:
`Cc1cc2nc(-c3ccc(SCC(=O)N4CCN(C(=O)c5ccco5)CC4)nc3)[nH]c2cc1C` in VACV mCherry inh is entered as -2%
`COc1cc(OC)cc(-c2cc3nc(C)c(CCC(=O)NCc4ccccc4)c(C)n3n2)c1` in Vaccinia Venus is entered as -25%&-16%

A draw from above in order of molecular weight, highest first.
structure	VACV mCherry inh	Vaccinia Venus
NS(=O)(=O)c1ccc(N=Cc2c(O)n(C3CCCCC3)c(=O)n(C3CCCCC3)c2=O)cc1	?	?
COC(=O)COc1cccc2c(=O)n(CC(=O)NCCc3ccc(OC)c(OC)c3)ccc12	i	-4%
COc1ccccc1-c1nnc(NC(=O)c2ccc(S(=O)(=O)N3CCOCC3)cc2)o1	-30%	-19%
CC(=O)N1CCN(c2ccc(Nc3ncnc4c3oc3ccccc34)cc2)CC1	-14%[1.46 µM]	?
Cc1ccc(-c2nc(-c3cc4c([nH]c3=O)CC(C)(C)CC4=O)sc2C)cc1	0%	2%
COc1cc(NC(=O)c2onc(C)c2Cl)c(OC)cc1Cl	0%	-8%
NNC(=O)COc1ccc(F)cc1	i	-8%

Compound activity: PubChem BioAssay, National Center for Advancing Translational Sciences (NCATS)
